Screens as filed in PubChem.
D2 PAM – positive allosteric modulators of human D2 dopamine receptor; P14416; DiscoveRx D2 beta-arrestin cells, luminescence, 90 min; 100% = 57 uM dopamine signal; 360,000 compounds, 0.23% hits; potentiation, % (no concentration beside the values); AID 624464; active = potentiation of 50% or more; inconclusive = 30% to 50%; inactive = 30% or less;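 further: compound concentration not given in the record; tested on top of an EC20 dose of dopamine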
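PathHunter D2 cells, attached overnight at 37 deg C, received compound in DMSO plus dopamine at EC20 (50 nM final) for 90 min at 37 deg C. Beta-arrestin recruitment was read as luminescence after 1 h with detection reagent at ambient temperature.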
CtBP-E1A inh – blocks the CtBP interaction with E1A; activity change, % (no concentration beside the values); AID 651724; AlphaScreen GST-E1A/His-CtBP binding, 1536-well; stronger effect = lower value; control for the full effect not named in the record; 340,000 compounds, 0.49% hits; in the data active means activity change below about -65%; inconclusive means about -30% to -65%; inactive means above about -30%; further: on the % scale 0 is the no-effect control and ±100 the full control effect
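AlphaScreen with 125 nM GST-E1A and 125 nM His-CtBP (5X stocks) in Tris pH 8.0, 300 mM NaCl, BSA, Tween 20, TCEP. Compounds preincubated 2 h at 37 deg C, then glutathione donor/nickel acceptor beads added for 1 h at 37 deg C in dark.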
TRPV1 PAM – potentiators of human vanilloid receptor 1 (TRPV1). Q8NER1. potentiation, % at 8.33 µM. 320,000 compounds, 0.02% hits. TRPV1-expressing cells, Fluo-8 calcium influx, capsaicin EC20 potentiation; host cell line not named in the record; control for the full effect not named in the record; active means potentiation above 80%; inconclusive means 30% to 80%; inactive means below 30%; further: 0% is about no effect
Target sequence (Q8NER1 whole entry, looked up): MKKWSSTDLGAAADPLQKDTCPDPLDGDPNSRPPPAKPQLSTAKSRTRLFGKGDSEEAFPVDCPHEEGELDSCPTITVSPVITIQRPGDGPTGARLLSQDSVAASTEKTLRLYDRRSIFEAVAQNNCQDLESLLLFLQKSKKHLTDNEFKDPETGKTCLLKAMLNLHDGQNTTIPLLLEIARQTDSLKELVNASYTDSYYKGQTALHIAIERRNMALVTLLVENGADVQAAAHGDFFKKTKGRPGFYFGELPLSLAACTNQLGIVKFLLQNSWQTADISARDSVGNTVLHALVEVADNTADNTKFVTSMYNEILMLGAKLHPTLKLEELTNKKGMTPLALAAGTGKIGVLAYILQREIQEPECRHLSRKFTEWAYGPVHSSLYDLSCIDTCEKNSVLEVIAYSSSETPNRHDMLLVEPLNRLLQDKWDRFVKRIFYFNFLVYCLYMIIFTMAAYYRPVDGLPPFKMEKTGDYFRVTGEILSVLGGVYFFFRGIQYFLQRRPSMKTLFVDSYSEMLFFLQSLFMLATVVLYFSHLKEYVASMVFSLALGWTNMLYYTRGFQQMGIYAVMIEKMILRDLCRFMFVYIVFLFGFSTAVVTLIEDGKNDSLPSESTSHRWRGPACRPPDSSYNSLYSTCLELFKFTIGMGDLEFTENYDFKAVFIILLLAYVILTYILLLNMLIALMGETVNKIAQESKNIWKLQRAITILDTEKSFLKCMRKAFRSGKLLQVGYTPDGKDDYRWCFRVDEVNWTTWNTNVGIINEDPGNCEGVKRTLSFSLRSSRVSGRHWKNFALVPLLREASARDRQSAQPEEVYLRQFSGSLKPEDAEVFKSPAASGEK
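Cells expressing TRPV1 were dye-loaded with Fluo-8 and read kinetically: 10 s baseline, 3 min after compound (agonist portion), then 2 min after EC20 capsaicin (allosteric enhancer portion). Calcium-bound dye fluorescence at 480/520 nm.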
Sfp PPTase inh – Sfp phosphopantetheinyl transferase inhibition | Q9F4F7 | Biochemical Sfp PPTase activity, qHTS | Potency, µM, inactives show max response, negative = inhibition, usual class: inhibitors | 310,000 compounds, 3.5% hits | AID 1490; active means well fitted inhibition curve with a large enough effect; inconclusive means small, poorly fitted or top-dose-only effect, or another doubt; inactive means no such curve, though single readings can be large or run the other way;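 further: the enzyme is Sfp with the accession as filed and its product quenches rhodamine fluorescence; potency means the concentration at half of the fitted maximal effect; 0% = enzyme reaction without inhibitor and -100% = no enzyme wells; top concentration of the series not given in the record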
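Step 1, compound plus 15 nM Sfp-PPTase, 15 min, room temperature. Step 2, add rhodamine-CoA (5 uM) and BHQ-2-YbbR (12.5 uM). Step 3, read 525/598 nm fluorescence at 0 and 30 min.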
D2 ag – agonists of human D2 dopamine receptor (beta-arrestin); AID 624465; 360,000 compounds, 0.084% hits; P14416; DiscoveRx PathHunter D2 beta-arrestin, luminescence, 90 min; 100% = 57 uM dopamine signal; activation, % (concentration not given with the values); in the data active = activation above about 40%; inconclusive = about 15% to 40%; inactive = below about 15%; further: the text of the record calls up to 30% inactive
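DiscoveRx PathHunter D2 beta-arrestin cells (2,100/well) attached overnight, then compound-stimulated 90 min at 37 C in HBSS/10 mM HEPES/0.1% Tween-20 buffer; beta-galactosidase complementation read by luminescence after 1 h at ambient temperature. Dopamine 57 uM final (EC100) as control.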
Six1-Eya2 blk – inhibitors of human Six1/Eya2 interaction; 360,000 compounds, 0.56% hits; AlphaScreen GST-Six1/His-Eya2 binding, biochemical; stronger effect = lower value; control for the full effect not named in the record; Q15475+O00167; activity change, % (test concentration not listed); in the data active = activity change below about -65%; inconclusive = about -30% to -65%; inactive = above about -30%; further: on the % scale 0 is the no-effect control and ±100 the full control effect
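Six1/Eya2 binding was read as AlphaScreen signal after compounds were pinned into GST-Six1 plus His-tagged Eya2 (5X stock 250/500 nM) in pH 8.0 Tris/NaCl/TCEP buffer, beads added, then incubated 1 h, 37 C, dark.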
PINK1 expr mod – modulators of PINK1 expression; Potency, µM (titrated, usually from 76.6 µM), for the others: top-dose activation (PINK1 increase), most hits filed as activators; 410,000 compounds, 0.2% hits; PINK1 immunofluorescence, high-content cytometry, 24 h; active = well fitted activation curve with a large enough effect; inconclusive = small, poorly fitted or top-dose-only effect; inactive = flat fitted curve, though single readings scatter; cell line not stated here;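 further: potency means the concentration at half of the fitted maximal effect; % of control where 0% means no effect; nearly all actives have a fitted effect of over 65% in size; a mitochondrial uncoupler was the plate control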
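Stable cell line, 250 cells/well, 12 h attachment; compounds pinned at 5 concentrations, 24 h; CCCP control. Fixed with nuclear dye, primary antibodies 12 h at 10 degrees C, secondary plus cell stain; laser-scanning cytometer read.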
* marks the source's active call; other numbers are inactive results; [ ] = another dose, or the depositor's remark.

For CCOC(=O)C1CCCN(C(=S)Nc2ccc(OC)cc2)C1 (stereo not drawn) the results were D2 PAM -3, CtBP-E1A inh 2, TRPV1 PAM -13, Sfp PPTase inh 20%, D2 ag -1.5, Six1-Eya2 blk -4 and PINK1 expr mod 0.2%.
Screening Cc1ccc2nc(-c3ccco3)c(CC(C)(C)C)n2c1 returned D2 PAM -8, CtBP-E1A inh -26, D2 ag -6.0, Six1-Eya2 blk -6 and PINK1 expr mod 3.5%.
For CCS(=O)(=O)N1CCC(C(=O)Nc2ccccc2OC)CC1 the results were D2 PAM -2, TRPV1 PAM -1, Sfp PPTase inh 11%, D2 ag 1.7, Six1-Eya2 blk -1 and PINK1 expr mod -0.6%.
O=C(NC1CCCCC1)N1CCC(c2nc3ccc(Cl)cc3[nH]2)CC1 was read as D2 PAM -10, CtBP-E1A inh 19, TRPV1 PAM -4, Sfp PPTase inh -12%, D2 ag -1.8, Six1-Eya2 blk -1 and PINK1 expr mod inconclusive.
For O=C(NCCc1nnc2ccc(SCC(=O)N3CCOCC3)nn12)c1ccccc1 the results were D2 PAM 1, CtBP-E1A inh 0, TRPV1 PAM -6, Sfp PPTase inh 9%, D2 ag -1.4, Six1-Eya2 blk 5 and PINK1 expr mod 0.0%.
Cc1ccc(-c2ccc(CN3C(C(C)C)C(=O)N(Cc4cn(Cc5ccco5)nn4)CCS3(=O)=O)cc2)cc1 (stereo not drawn) was read as D2 PAM -3, CtBP-E1A inh 4, D2 ag -3.9, Six1-Eya2 blk -16 and PINK1 expr mod 13%.
Screening CN(CC(=O)OCC(=O)Nc1ccccc1)S(=O)(=O)c1ccc(Cl)cc1 returned D2 PAM 4, CtBP-E1A inh 1, TRPV1 PAM 6, Sfp PPTase inh -4%, D2 ag 0.3, Six1-Eya2 blk 1 and PINK1 expr mod -0.9%.
`N=C1C(=O)OCC1c1ccccc1NC(=O)CN1CCCCC1` (stereo not drawn) gave D2 PAM -20, CtBP-E1A inh -2, TRPV1 PAM 2, Sfp PPTase inh -22%, D2 ag -2.7, Six1-Eya2 blk 9 and PINK1 expr mod 0.7%.
For COc1ncccc1C(=O)NC1CCCc2c1cnn2-c1cc(C)cc(C)c1 (stereo not drawn) the results were D2 PAM 1, CtBP-E1A inh -2, TRPV1 PAM -9, Sfp PPTase inh -2%, D2 ag -3.3, Six1-Eya2 blk -5 and PINK1 expr mod 1.4%.
Screening O=C(NC(=S)N1CCN(c2ccccn2)CC1)c1ccco1 returned D2 PAM -5, TRPV1 PAM 12, Sfp PPTase inh -27%, D2 ag 0.5, Six1-Eya2 blk -5 and PINK1 expr mod -0.9%.
O=C(Oc1ccc([N+](=O)[O-])cc1)c1cncc(Br)c1 was read as D2 PAM -14, CtBP-E1A inh -1, TRPV1 PAM -7, Sfp PPTase inh 6%, D2 ag -0.7, Six1-Eya2 blk 1 and PINK1 expr mod -2.2%.
Screening CC(=O)Nc1ccc(NC(=O)CS(=O)(=O)c2cn(CC(=O)N3CCCC3)c3ccccc23)cc1 returned D2 PAM 7, CtBP-E1A inh 4, TRPV1 PAM 10, Sfp PPTase inh -8%, D2 ag -4.0, Six1-Eya2 blk -3 and PINK1 expr mod -0.7%.
Screening O=C(CN1c2cccc3cccc(c23)S1(=O)=O)Nc1ccccc1Br returned D2 PAM 4, CtBP-E1A inh 6, D2 ag 3.2, Six1-Eya2 blk 2 and PINK1 expr mod 3.5%.
For CCOc1ccccc1CN1CCN(C/C=C/c2ccc(OC)cc2)CC1CCO (stereo not drawn) the results were D2 PAM -7, CtBP-E1A inh -9, TRPV1 PAM -7, Sfp PPTase inh -5%, D2 ag -4.3, Six1-Eya2 blk -12 and PINK1 expr mod 1.2%.
`Cc1cc(Nc2cc(C(=O)O)ccc2C)n2ncnc2n1` gave D2 PAM -2, CtBP-E1A inh 6, TRPV1 PAM -8, Sfp PPTase inh -2%, D2 ag -0.8, Six1-Eya2 blk 3 and PINK1 expr mod 2.8%.
Screening O=C(/C=C/c1ccc(S(=O)(=O)N2CCOCC2)cc1)NCCCn1ccnc1 returned D2 PAM -3, CtBP-E1A inh 4, TRPV1 PAM 4, Sfp PPTase inh 11%, D2 ag -3.0, Six1-Eya2 blk -5 and PINK1 expr mod 0.8%.
`O=C1NC2(CCCCC2)C(=O)N1/N=C/c1ccc(O)cc1O` gave D2 PAM -3, CtBP-E1A inh -3, TRPV1 PAM 5, Sfp PPTase inh -12%, D2 ag -1.0, Six1-Eya2 blk 0 and PINK1 expr mod 0.5%.
Screening O=C(NC(=O)N1CCN(c2cccc(Cl)c2)CC1)c1ccc(Cl)cc1 returned D2 PAM -29, CtBP-E1A inh 7, TRPV1 PAM -7, Sfp PPTase inh 18%, D2 ag 5.5, Six1-Eya2 blk -5 and PINK1 expr mod -0.8%.
`COc1ccccc1NC(=O)CSc1nnnn1-c1ccccc1F` gave D2 PAM -2, CtBP-E1A inh 0, TRPV1 PAM -9, Sfp PPTase inh 40µM*, D2 ag 2.4, Six1-Eya2 blk 2 and PINK1 expr mod -0.7%.
CN(C)CCN1C(=O)C(=O)/C(=C(/O)c2ccc(OCc3ccccc3)cc2)C1c1ccncc1 (stereo not drawn) was read as D2 PAM -1, CtBP-E1A inh -8, TRPV1 PAM 3, Sfp PPTase inh 5%, D2 ag 0.1, Six1-Eya2 blk 6 and PINK1 expr mod -0.9%.
`CCc1ccc(C(=O)Nn2c(C)nc3ccccc3c2=O)cc1` gave D2 PAM -13, TRPV1 PAM -8, Sfp PPTase inh 13%, D2 ag -0.1, Six1-Eya2 blk 3 and PINK1 expr mod 0.6%.
CCC(C)NC(=O)C1CCCN(C(=O)NC2CCCCC2)C1 (stereo not drawn) was read as D2 PAM 3, CtBP-E1A inh -14, TRPV1 PAM -12, Sfp PPTase inh 16%, D2 ag -1.2, Six1-Eya2 blk 5 and PINK1 expr mod -3.5%.
CCOC(=O)c1c(NC(=O)Cc2ccccc2)sc2c1CCN(CC)C2 was read as D2 PAM -14, CtBP-E1A inh 3, TRPV1 PAM -7, Sfp PPTase inh 5%, D2 ag -4.6, Six1-Eya2 blk -1 and PINK1 expr mod -0.2%.
COc1ccc(NC(=S)N(CCC(C)C)C2CCN(C(C)=O)CC2)cc1 was read as D2 PAM -20, CtBP-E1A inh -11, TRPV1 PAM 7, Sfp PPTase inh -10%, D2 ag 4.4, Six1-Eya2 blk 3 and PINK1 expr mod -0.5%.
COc1ccc(C(=O)NC(C)c2nc3ccccc3n2C)cc1OC (stereo not drawn) was read as D2 PAM -20, CtBP-E1A inh 0, TRPV1 PAM 0, Sfp PPTase inh -12%, D2 ag -1.3, Six1-Eya2 blk 3 and PINK1 expr mod -0.3%.
`c1ccc(-c2nnc(SCC3CCCCO3)nc2-c2ccccc2)cc1` (stereo not drawn) gave D2 PAM -20, CtBP-E1A inh 0, TRPV1 PAM -8, Sfp PPTase inh 7%, D2 ag 1.3, Six1-Eya2 blk -10 and PINK1 expr mod -0.5%.
For Cc1cc(C(=O)N/N=C/c2cccc(OC(=O)c3ccco3)c2)n[nH]1 the results were D2 PAM -7, CtBP-E1A inh -2, TRPV1 PAM -6, Sfp PPTase inh 27%, D2 ag -3.8, Six1-Eya2 blk -2 and PINK1 expr mod 0.7%.
For O=C(COc1ccc2ccccc2c1)Nc1cccc(C(=O)Nc2ccccc2C(=O)O)c1 the results were D2 PAM -5, CtBP-E1A inh -6, TRPV1 PAM 4, Sfp PPTase inh 7%, D2 ag 2.0, Six1-Eya2 blk -10 and PINK1 expr mod -1.0%.
COc1ccc(NC(=S)N(Cc2ccc(Cl)cc2)Cc2ccc(C(=O)O)cc2)cc1Cl was read as D2 PAM -5, TRPV1 PAM 8, Sfp PPTase inh 50µM*, D2 ag -2.2, Six1-Eya2 blk -1 and PINK1 expr mod 2.1%.
For Cc1ccc(O)c(C(=O)c2cnc3c(c2)COc2ccccc2-3)c1 the results were D2 PAM -13, CtBP-E1A inh -21, TRPV1 PAM -5, Sfp PPTase inh 0%, D2 ag -3.0, Six1-Eya2 blk -29 and PINK1 expr mod -2.3%.
For O=C(CNC(=O)N1CC(=O)Nc2ccccc21)NCc1ccccc1 the results were D2 PAM -5, CtBP-E1A inh 5, TRPV1 PAM 12, Sfp PPTase inh 7%, D2 ag -0.3, Six1-Eya2 blk 4 and PINK1 expr mod 0.4%.
For Cc1ccc(S(=O)(=O)N2CC3CCCN3c3ccc(C(F)(F)F)cc32)cc1 (stereo not drawn) the results were D2 PAM -5, CtBP-E1A inh -6, TRPV1 PAM 8, Sfp PPTase inh 18%, D2 ag 0.7, Six1-Eya2 blk -1 and PINK1 expr mod 3.5%.
Screening CCOC(=O)c1c(C)[nH]c(N=Nc2cccc(C)c2)c1C returned D2 PAM -20, CtBP-E1A inh inconclusive, TRPV1 PAM -5, Sfp PPTase inh -10%, D2 ag -2.7, Six1-Eya2 blk inconclusive and PINK1 expr mod 2.7%[38.3 µM].
COC(=O)c1ccc(CNC(=O)c2ccc(S(=O)(=O)N3CCCC(C)C3)cc2)cc1 (stereo not drawn) was read as D2 PAM -9, CtBP-E1A inh 3, TRPV1 PAM -1, D2 ag -1.3, Six1-Eya2 blk 0 and PINK1 expr mod inconclusive.
`CCc1cccc2c1NC(=O)C2(O)N1CCCC(C)C1` (stereo not drawn) gave D2 PAM 0, CtBP-E1A inh 11, TRPV1 PAM -20, Sfp PPTase inh 7%, D2 ag 0.5, Six1-Eya2 blk 2 and PINK1 expr mod 0.1%.
`Cc1c(C)n2c(SCC(=O)Nc3ccc4c(c3)OCCO4)nnc2[nH]c1=O` gave D2 PAM 9, CtBP-E1A inh -21, TRPV1 PAM 26, D2 ag 0.1, Six1-Eya2 blk 7 and PINK1 expr mod 2.8%.
For COc1ccc(-n2c(Cc3cccn3C)nnc2SCC(=O)Nc2ccc(C)cc2)cc1 the results were D2 PAM 5, CtBP-E1A inh -7, TRPV1 PAM -1, Sfp PPTase inh -2%, D2 ag -4.9, Six1-Eya2 blk -16 and PINK1 expr mod 0.9%.
`Cc1ccc(NC(=O)CNC(=O)c2ccc(Br)o2)nc1` gave D2 PAM -4, CtBP-E1A inh 0, TRPV1 PAM 1, D2 ag 0.7, Six1-Eya2 blk 3 and PINK1 expr mod 1.5%.
COc1cccc(CNC(=O)[C@@H]2CCCN2)c1 was read as CtBP-E1A inh 3, Six1-Eya2 blk -2 and PINK1 expr mod -0.4%.
